High-throughput results from PubChem.
Tg IFNy HTS: inhibitors of Toxoplasma gondii growth with IFN-gamma; activity change, negative = inhibition, %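 (about 20 µM by stock and volumes)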; Toxoplasma gondii growth in IFN-gamma-treated host cells; hits give low values; reference of the scale not given here; 69,000 tested, 3.8% active; AID 1259416;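 active = below -70%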;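 note: host cells are HeLa cells infected with Toxoplasma gondii; parasite growth read as luciferase light; one replicate is shown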
Numbers without * were called inactive; i = inactive; & = joins results of further samples. An excerpt (hit frequency here may not be typical).

SMILES	Tg IFNy HTS
Cc1nnc(-c2ccc3ccn(CC(=O)Nc4ncccc4C)c3c2)o1	58.6
Cc1cnc(-n2cnnc2)c(-c2cc(O)cc(CCC3CCCCN3)c2)c1 (stereo not drawn)	-19.1
Cc1cccc(S(=O)(=O)N[C@@H]2CC[C@H](CCNC(=O)Nc3cc(F)ccc3F)O[C@H]2CO)c1	12.2
N#C[C@H]1[C@H](c2ccc(-c3cccc(F)c3)cc2)[C@@H](CO)N1c1nc(-c2ccccc2)cs1	-22.3
CCN(c1cccc2ccccc12)S(=O)(=O)c1ccccc1	-37.4
Nc1nc2c(cc1C(=O)N1CCCC1)CN(C(=O)c1ccccc1-c1ccccc1)CC2	-4.8
CCCS(=O)(=O)N1C[C@@H](c2nc(C)no2)C[C@@H]2OCC[C@@H]21	41.8
C[N+](C)(C)CCCCCNCC12CC3CC(CC(C3)C1)C2	14.3
COc1ccc(NC2c3cccc4cccc(c34)C2NS(=O)(=O)c2ccccc2)cc1 (stereo not drawn)	12.7
c1ccn(-c2ccc(N3CCOCC3)cc2)c1	68.6
CC(C)c1nccn1Cc1nc2ccccc2c(=O)[nH]1	6.1
CCCC(=O)NCCc1csc(-c2cccc(F)c2)n1	69.6
CCCCOc1ccc(C(=O)NCCc2sc(-c3ccc(F)cc3)nc2C)cc1	-61.8
Cc1cc(C)n(-c2cc(C(=O)NCc3cc(=O)[nH]c(N4CCOCC4)n3)ccc2C)n1	33.0
Cc1ccc(OCc2nc(-c3cccs3)no2)cc1C	28.5
O=C(NCCc1nc(-c2ccccn2)no1)c1ccc2ncsc2c1	-8.9
N[C@@H]1CC[C@@H](NS(=O)(=O)c2c(Cl)nc3sccn23)C1	2.6
COc1cccc(-c2cc(CNC(=O)c3cc4n(n3)CCCN(C)C4)on2)c1	-4.9
CCNC(=O)NC1C(NC(=O)NCC)N(C)C(=O)N1C (stereo not drawn)	8.6
CSC(=S)Nc1ccc(NC(C)=O)cc1	15.2
CCc1nc(-c2nccn2CCCn2ccnc2)c(C)[nH]1	-34.8
FC(F)(F)c1ccnc(NCCNc2ncccc2C(F)(F)F)n1	49.3
C[C@H](CO)N1C[C@H](C)[C@@H](CN(C)Cc2ccc3c(c2)OCO3)Oc2c(NC(=O)c3ccncc3)cccc2C1=O	-54.9
Cc1cc(I)ccc1Nc1c(C(=O)NOCC2CC2)cc(F)c(F)c1F	-81.8*
Cc1ccc(S(=O)(=O)N2C[C@@H](O)COC[C@@H]3O[C@H](CC(=O)NCc4ccc5c(c4)OCO5)CC[C@H]32)cc1	-23.9
Cc1cccc(-c2c(-c3ccccc3)ncn2CCc2cn[nH]c2)c1C	-46.7
Cc1ccc(NC(=O)CC(=O)NCCc2sccc2C)cc1	6.8
Cc1ccc(S(=O)(=O)Nc2ccc3c(c2)C(=O)N([C@H](C)CO)C[C@H](C)[C@@H](CN(C)Cc2ccc(C(F)(F)F)cc2)O3)cc1	14.3
CC(NC(=O)CSCc1ccccc1Cl)c1nncn1C (stereo not drawn)	-13.6
CO[C@H]1CN(C)C(=O)c2cc(NC(=O)c3ccccc3F)ccc2OC[C@H](C)N(CC2CCOCC2)C[C@H]1C	-3.8
Cc1cc(F)ccc1NC(=O)Cn1c(=O)cc(C(=O)N2CCc3ccccc3C2)c2ccccc21	9.3
CN(C)CCN1CCO[C@@H]2CN(Cc3nccs3)C[C@@H]21	6.2
CCN(CC)S(=O)(=O)N1CCCC1c1cc(Nc2ncccc2C)cc(C)n1 (stereo not drawn)	2.0
C[C@H](CO)N1C[C@H](C)[C@@H](CN(C)S(=O)(=O)c2ccc(Cl)cc2)OCCCC[C@H](C)Oc2ccc(NC(=O)Nc3ccc(C(F)(F)F)cc3)cc2C1=O	-66.9
C=CCN(Cc1cccnc1)C(=O)CC(=O)Nc1cc(C)cc(C)c1	5.4
c1ccc(Cn2cc(Cn3ccnc3-c3ccncc3)cn2)cc1	3.6

An excerpt from the list above, as a working copy:
SMILES	Tg IFNy HTS
COc1cccc(-c2cc(CNC(=O)c3cc4n(n3)CCCN(C)C4)on2)c1	-4.9
CCNC(=O)NC1C(NC(=O)NCC)N(C)C(=O)N1C (stereo not drawn)	8.6
CSC(=S)Nc1ccc(NC(C)=O)cc1	15.2
CCc1nc(-c2nccn2CCCn2ccnc2)c(C)[nH]1	-34.8
FC(F)(F)c1ccnc(NCCNc2ncccc2C(F)(F)F)n1	49.3
C[C@H](CO)N1C[C@H](C)[C@@H](CN(C)Cc2ccc3c(c2)OCO3)Oc2c(NC(=O)c3ccncc3)cccc2C1=O	-54.9
Cc1cc(I)ccc1Nc1c(C(=O)NOCC2CC2)cc(F)c(F)c1F	-81.8*
Cc1ccc(S(=O)(=O)N2C[C@@H](O)COC[C@@H]3O[C@H](CC(=O)NCc4ccc5c(c4)OCO5)CC[C@H]32)cc1	-23.9
Cc1cccc(-c2c(-c3ccccc3)ncn2CCc2cn[nH]c2)c1C	-46.7
Cc1ccc(NC(=O)CC(=O)NCCc2sccc2C)cc1	6.8
Cc1ccc(S(=O)(=O)Nc2ccc3c(c2)C(=O)N([C@H](C)CO)C[C@H](C)[C@@H](CN(C)Cc2ccc(C(F)(F)F)cc2)O3)cc1	14.3
CC(NC(=O)CSCc1ccccc1Cl)c1nncn1C (stereo not drawn)	-13.6
CO[C@H]1CN(C)C(=O)c2cc(NC(=O)c3ccccc3F)ccc2OC[C@H](C)N(CC2CCOCC2)C[C@H]1C	-3.8
Cc1cc(F)ccc1NC(=O)Cn1c(=O)cc(C(=O)N2CCc3ccccc3C2)c2ccccc21	9.3
CN(C)CCN1CCO[C@@H]2CN(Cc3nccs3)C[C@@H]21	6.2
CCN(CC)S(=O)(=O)N1CCCC1c1cc(Nc2ncccc2C)cc(C)n1 (stereo not drawn)	2.0

Next section
SMILES	Tg IFNy HTS
COc1cc(NC(=O)COc2nc(C)nc3ccccc23)cc(OC)c1OC	-4.5
CCOC(=O)c1ccc(N2CCCCC2)c(NS(=O)(=O)c2ccc(C)cc2)c1	-99.9*
COc1ccc2c(c1)n1nnnc1c1nnnn21	116.0
O=C(c1cc2cccnc2n(Cc2ccccc2)c1=O)N1CCOCC1	43.2
O=C(C1CC2(CCNCC2)CN1)N(CCN1CCOCC1)Cc1ccco1 (stereo not drawn)	130.9
CC(C)Cc1ccc(C(=O)C(C)N2CCN(c3ccc(C(F)(F)F)cn3)CC2)cc1 (stereo not drawn)	-42.7
CCc1nc2ccc(NC(=O)C3(C)CC(=O)N=C4C=C(C)C=CN43)cc2[nH]1 (stereo not drawn)	4.8
Cc1cc(C)n(Cc2nc(-c3ccc(NC(=O)c4cc(F)cc(F)c4)cc3)oc2C)n1	-32.0
COCC(=O)N(C[C@H]1[C@H](c2ccccc2)[C@H](CO)N1C(=O)NC(C)C)C(C)C	18.4
CCOC(=O)c1ccc(NC(=O)N2CCC(O)(c3ncccc3C)CC2)cc1	124.5
O=C(Cn1nc(C(c2ccccc2)c2ccccc2)oc1=O)N1CCCCC1	39.3
CC(=O)N1CCCCN2[C@H](CO)[C@H](c3ccc(-c4ccccc4)cc3)[C@H]2C1	-16.2
COc1ccc2[nH]c3c(c2c1)CCNC3C1CC=C(C)CC1 (stereo not drawn)	-84.0*
Cc1ccc(S(=O)(=O)N2CCC3(CC2)NCCN=C3NCc2ccc(C(F)(F)F)cc2)cc1C	-64.0
C[C@H](CO)N1C[C@H](C)[C@@H](CN(C)C)OCc2ccccc2-c2c(n(C)c3ccccc23)C1=O	-31.9
CC(C)(C)C(=O)N1C[C@@H]2c3nc(NCC4CC4)ncc3CS(=O)(=O)[C@H]2C1	-6.2
N[C@H](C(=O)O)[C@H](O)c1ccc(O)c(O)c1	14.5
Cc1cc2cccc(C(=O)NCC3(O)CCCNCC3)c2o1 (stereo not drawn)	3.6
Cc1nc2c(nc(SCc3nc(-c4ccc(C(C)C)cc4)oc3C)n2C)c(=O)[nH]1	2.9
CS(=O)(=O)N1CCO[C@]2(CCC[C@@H]2COCc2ccccn2)C1	-24.5
C[C@@H]1CCCCO[C@H](CN(C)Cc2ccc(C(F)(F)F)cc2)[C@H](C)CN([C@@H](C)CO)C(=O)c2cc(NC(=O)Nc3cccc4ccccc34)ccc2O1	139.1
COc1ccccc1-c1nc(Cn2nnc(C(=O)Nc3ccc(F)cc3F)c2C)c(C)o1	53.9
Cc1ccc(S(=O)(=O)c2cnc(N3CCC(C(N)=O)(N4CCCCC4)CC3)nc2N)cc1C	65.4
CC1(C)NC(=O)N(CC(=O)Nc2ccc(N3CCCCC3)c(C(F)(F)F)c2)C1=O	-22.7
CN(Cc1cc2n(n1)CCNC2)Cc1nc2ccc(F)cc2[nH]1	4.3
O=C(CC(c1ccccc1)c1ccccc1)Nc1ncn[nH]1	19.1
CCn1ncnc1CN1C[C@H](N)C[C@H]1C(=O)NC(C)C	4.9
Fc1ccc(C2CCCN2Cc2cc(-c3ccccn3)no2)cc1 (stereo not drawn)	-7.5
COc1ccccc1N1CCN(C(=O)Nc2n[nH]c(Cc3ccccc3)n2)CC1	-10.7
CCOCC1CN(Cc2ccc(C)s2)Cc2nn(C)cc21 (stereo not drawn)	-6.4
CC(C)N1CCNC(=O)C1CC(=O)NCC1(Cn2cccn2)CC1 (stereo not drawn)	5.3
O=C(c1cccc(Cn2cccn2)c1)N1CCC(Nc2ncccn2)CC1	5.7
COc1ccc(OC)c(NC(=O)C2C3C=CC(C3)C2C(=O)NCc2cccnc2)c1 (stereo not drawn)	14.5
Cc1ccccc1NC(=O)C(=O)NCCc1sc(-c2cccc(F)c2)nc1C	-26.7
COc1ccc(NC(=O)N2CCC3(CC2)Nc2cc(F)ccc2-n2cccc23)cc1	i
COc1ccc(NC(=O)CN2CCC3(CC2)N=C(c2ccc(C)c(C)c2)C(=O)N3)cc1	11.7
O=C(COc1ccc2c(-c3ccccc3)cc(=O)oc2c1)NCc1cccs1	-31.4
Cn1ccnc1-c1ccc(N2CCCC(CO)(Cc3ccccc3F)C2)nn1 (stereo not drawn)	15.9
COCC(=O)N1[C@H](CO)[C@@H](c2ccc(C#Cc3ccccc3F)cc2)[C@@H]1C#N	-15.0
O=C(C[C@@H]1CC[C@H]2[C@@H](COC[C@@H](O)CN2C(=O)c2ccncc2)O1)NCc1cc(F)cc(F)c1	11.0
Cc1ccsc1-c1nc(CN(C)Cc2cnn(C)c2C)c(C)o1	-5.8
Cc1oncc1C(=O)N1CCn2c(Cn3cccn3)cnc2C1	-3.0
COc1ccc([C@H]2CC=CC[C@H](C)Oc3ccccc3C(=O)N(C)[C@H](C(C)C)C(=O)N2)c(OC)c1 (mixture of isomers)	34.5
Cc1cnc(CNC(=O)[C@H]2CO[C@@H]3CCN(C)C[C@@H]3C2)cn1	-6.3
COCC1CN(C(=O)c2ccc(F)cc2)Cc2cnn(CC3CC3)c21 (stereo not drawn)	2.6
FC(F)(F)c1ccnc(NCc2cccnc2-n2ccnc2)c1	-6.1
O=C(NC1CCC1)[C@@H]1[C@@H](CO)[C@@H]2Cn3c(ccc(-c4ccncc4)c3=O)[C@H]1N2Cc1cocn1	0.2
CC(C)NC(=O)NCC1CCN(Cc2cc(C(C)(C)C)n[nH]2)C1 (stereo not drawn)	-0.4
Cc1ccc(NC(=O)CC(=O)N2CCC3(CCCN(C)CC3)CC2)cc1	-69.1
O=C(Nc1ccc(F)cc1F)c1nc(Nc2ccccc2)c2ccccc2n1	-9.1
Cc1c(F)cccc1NC(=O)CNCCc1csc(-c2cccnc2)n1	10.9
COc1cc(C)ccc1-c1[nH]cnc1-c1ccccc1	0.6
O=S(=O)(c1cccc(F)c1)N1CC[C@@H]2[C@H]1c1cc(Br)ccc1N[C@@H]2CO	-46.1
Cc1nc(C)c(C(=O)N2CCC(C(NC(=O)C(C)(C)C)c3nccs3)CC2)o1 (stereo not drawn)	28.1
CC(C)c1ncc(CN2CCC(C3CC=CCN(CCc4ccccc4)C3=O)CC2)cn1 (stereo not drawn)	1.1
CC(C)NC(=O)NCC[C@H]1CC[C@H](NS(=O)(=O)c2ccc(Oc3ccccc3)cc2)[C@@H](CO)O1	-39.1
CC(=O)OCC(=O)[C@@]1(O)CCC2C3CCC4=CC(=O)CC[C@]4(C)[C@@]3(F)[C@@H](O)C[C@@]21C (stereo partly drawn)	-5.7
O=C(NC(=O)c1c(F)cccc1Cl)c1ccccc1O	-60.1
Cc1nn(Cc2ccccc2)c(C)c1CN(CCN(C)C)Cc1ccncc1	11.7
CC(O)CN(Cc1c(-c2ccco2)[nH]c2ncccc12)CC(C)O (stereo not drawn)	241.2
Later entries.
SMILES	Tg IFNy HTS
COC(=O)[C@@H]1CCCN1C(c1ccccc1)(c1ccccc1)c1ccccc1	-48.9
CN1C(=O)CO[C@H]2CN(C(=O)c3cnc4ccccc4c3)C[C@@H]21	-2.9
COc1cccc(CN2C[C@H]3COC[C@@]3(CNC(=O)CC3CC3)C2)c1	-0.2
O=C(Cn1ncc2c(N3CCCCCC3)ncnc21)NCc1cc(F)cc(F)c1	57.9
CC(C)(C)c1cc(CN2CCc3[nH]cnc3C2c2ccncc2)[nH]n1 (stereo not drawn)	-0.5
O=C(O)C1=NN(c2ccccc2)C(=O)C1	2.0
NC(=O)N/N=C/c1ccc(Oc2ccc(F)cc2)cc1	19.1&22.5
CCOc1ccc(NC(=O)N2CCc3nc(-c4cccc(OC)c4)sc3C2)cc1	16.7
CNC(=O)C1CCN(c2cc(C)nc(-c3ccccc3)n2)C1 (stereo not drawn)	0.3
CC[C@@H]1C/C=C\C[C@@H](c2ccc(OC)cc2OC)NC(=O)[C@@H](C)CC(=O)N1	-30.1
COCCN(Cc1cnn(C)c1)C(=O)c1cc(-c2ccccc2Cl)oc1C	-2.4
Cc1ccc(-c2ccnc(N3CCC(N4CCC(O)CC4)CC3)n2)c(C)n1	1.8
COc1ccc2cc(C3CN(c4ncnc5[nH]ccc45)CCO3)ccc2c1 (stereo not drawn)	131.3
CCn1c(CN2CCCC2c2nc(-c3ccncc3)no2)nc2ccccc21 (stereo not drawn)	-3.0
C=CCn1c(SC(C(C)=O)C(=O)OCC)nnc1-c1cnn(-c2ccccc2)c1N (stereo not drawn)	67.1
COc1c2ccoc2nc2c(OC)c(OCC(O)C(C)(C)O)ccc12 (stereo not drawn)	14.4
COc1ccc(-c2nc(CN3CCN4C(=O)CNC(=O)C4C3)c(C)o2)c(F)c1 (stereo not drawn)	-7.5
Cc1cc(C(=O)NC2CC3(CCOCC3)Oc3ccccc32)on1 (stereo not drawn)	0.9
